Compound activity as filed in PubChem BioAssay.
CHT inh – human CHT choline transport inhibition. Q9GZV3. CHT-expressing cells, membrane potential dye, choline response; active compounds read low. B-score at 10 µM. 0.86% of 310,000 active. AID 488975;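 active = B-score over 3 SD under the library average, and starting fluorescence ratio not unusually high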;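 also: choline stimulus applied at its EC90 after an EC20 pre-addition; B-score computed on integrated fluorescence ratio after choline addition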
Target sequence (Q9GZV3 whole entry, looked up): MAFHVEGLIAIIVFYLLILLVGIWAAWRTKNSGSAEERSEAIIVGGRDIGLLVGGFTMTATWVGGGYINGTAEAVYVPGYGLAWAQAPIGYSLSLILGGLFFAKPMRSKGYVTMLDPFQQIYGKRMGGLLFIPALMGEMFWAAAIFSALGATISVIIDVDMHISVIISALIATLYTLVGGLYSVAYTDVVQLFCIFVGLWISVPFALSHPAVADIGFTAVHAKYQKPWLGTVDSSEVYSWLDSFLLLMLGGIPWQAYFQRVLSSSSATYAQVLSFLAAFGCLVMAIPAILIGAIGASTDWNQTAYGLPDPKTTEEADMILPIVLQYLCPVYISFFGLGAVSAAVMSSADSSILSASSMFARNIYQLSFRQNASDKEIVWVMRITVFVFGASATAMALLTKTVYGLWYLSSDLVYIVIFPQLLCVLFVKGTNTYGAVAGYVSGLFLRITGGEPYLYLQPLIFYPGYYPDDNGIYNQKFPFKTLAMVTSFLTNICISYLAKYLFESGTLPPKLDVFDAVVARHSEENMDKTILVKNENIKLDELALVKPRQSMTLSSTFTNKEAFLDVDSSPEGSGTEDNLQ
CHT allo act – allosteric activators of human choline transporter CHT; Q9GZV3; CHT-expressing cells, membrane potential dye, choline EC20; active compounds read high; LV-AA mutant CHT in HEK293 cells; B-score at 10 µM; 0.49% of 310,000 active; AID 488977;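 active = initial fluorescence not abnormally high and integrated response B-score, plate-corrected, over 3 SD above library mean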
Numbers without * were called inactive; i = inactive.

SMILES	CHT inh	CHT allo act
CCOc1cc(C)nc(N2CCCC(C(=O)NCc3ccccc3F)C2)n1 (stereo not given)	i	i
Cn1cccc1Cc1nnc(SCC(=O)NCc2ccc3c(c2)OCO3)n1CCc1ccccc1	i	i
CCCS(=O)(=O)N1CCC(C(=O)NCCc2ccccc2)CC1	i	i
Cc1ccc(C)c(S(=O)(=O)N2CCN(C(=O)CSC(=S)N3CCCC3)CC2)c1	i	i
C#CCOc1c(Br)cc(/C=N/O)cc1OCC	i	i
Cn1c(SCC(=O)NC2CCCC2)nc2cccnc21	i	i
COC(=O)c1ccc(CO/N=C/c2ccc(OC)cc2)o1	i	i
CS(=O)(=O)N(CC(=O)NCc1ccccn1)c1ccc2c(c1)OCCO2	i	i
Cc1c(C#N)c2ncn(CC#N)c(=O)c2n1-c1ccccc1	i	i
CC(C)(C)c1ccc(-c2noc(C(=O)NN)n2)cc1	i	i
O=C(CCCn1c(=S)[nH]c2ccsc2c1=O)NCc1ccco1	i	i
COc1cccc(-c2nn(C)c3sc(C(=O)NCc4ccco4)cc23)c1	i	i
Cc1ccc(OCC(=O)c2cc(C)n(C)c2C)c([N+](=O)[O-])n1	i	i
Cc1ccc(CN2CCc3c(OCC(=O)Nc4cccc(C)c4C)cccc3C2=O)cc1	i	i
S=C(NCCc1ccccc1)Nc1ccc(Br)cc1	i	i
COc1cc(O)cc(O)c1C(=O)/C=C/c1ccccc1	i	i
CCCn1c(SCc2nc(N)nc(N3CCCCC3)n2)nc2c1c(=O)n(C)c(=O)n2C	i	i
NC(=O)c1ccc(-n2nc(C(F)(F)F)c3c2CCCC3)cc1	i	i
COc1ccc(C(=O)NCC2(c3ccc(OC)c(OC)c3)CCCC2)c(OC)c1	i	i
CC(=O)Oc1ccc2c(=O)oc(-c3ccc([N+](=O)[O-])cc3)nc2c1	i	i
CCNC(=S)NNc1ccccc1	i	i
Cc1cc(C)nc(NS(=O)(=O)c2ccc(N/C=C/C(=O)c3ccc(Cl)c(Cl)c3)cc2)n1	i	i
CSc1cccc(NC(C)=O)c1	i	i
COc1ccc(OC)c(NC(=O)c2cnc(Nc3ccccc3OC)c3ccccc23)c1	i	i
O=C(O)c1sccc1NC(=O)c1c(Cl)cccc1Cl	i	i
Cc1nc(SCC(=O)NC(=O)NC(C)C)nc(C)c1C	i	i
O=C(CSC1CCCCC1)Nc1nccs1	i	i
O=C(Oc1c(-c2ccccc2)c(=O)n2c3c(cccc13)CC2)c1ccc(F)cc1	i	i
COc1ccc(OC)c(NC(=O)CSc2sc3c(O)cc(=O)[nH]c3c2C#N)c1	i	i
Cc1ccc(N2CCN(/N=C/c3ccccc3[N+](=O)[O-])CC2)cc1	i	i
O=C1CCCN1CCCNc1ncnc2sccc12	i	i
COc1cccc(C(=O)Nc2cccc(OCC(=O)c3ccccc3)c2)c1	i	i
Cc1noc(NS(=O)(=O)c2ccc(NC(=O)Cc3ccc([N+](=O)[O-])cc3)cc2)c1C	i	i
CCOCCCn1c(=N)c(S(=O)(=O)c2ccccc2)cc2c(=O)n3cc(C)ccc3nc21	i	i
CNS(=O)(=O)c1cccc(C(=O)OCC(=O)N(Cc2ccccc2)C(C)(C)C)c1	i	i
O=c1c2c3c(sc2nc2sc(CN4CCCCC4)cn12)CCCC3	i	i
CCc1ccc(CN2CCN(S(=O)(=O)Cc3ccccc3)CC2)cc1	i	i
CC(C)(C)CN1C(N)=NC[C@@H]1Cc1ccc(O)cc1	i	i
COc1ccc(CN2CCN(C(=O)c3ccco3)CC2)c(OC)c1OC	i	i
Cc1ccc(Cn2c(=N)c(S(=O)(=O)c3ccc(C)cc3)cc3c(=O)n4ccccc4nc32)cc1	i	i

Shown with each value named: entries from further up.
CCOCCCn1c(=N)c(S(=O)(=O)c2ccccc2)cc2c(=O)n3cc(C)ccc3nc21
  CHT inh: i; CHT allo act: i

Cc1noc(NS(=O)(=O)c2ccc(NC(=O)Cc3ccc([N+](=O)[O-])cc3)cc2)c1C
  CHT inh: i; CHT allo act: i

CC(C)(C)CN1C(N)=NC[C@@H]1Cc1ccc(O)cc1
  CHT inh: i; CHT allo act: i

CNS(=O)(=O)c1cccc(C(=O)OCC(=O)N(Cc2ccccc2)C(C)(C)C)c1
  CHT inh: i; CHT allo act: i

3 neighbouring records from above, quoted:
SMILES	CHT inh	CHT allo act
O=C1CCCN1CCCNc1ncnc2sccc12	i	i
COc1cccc(C(=O)Nc2cccc(OCC(=O)c3ccccc3)c2)c1	i	i
Cc1noc(NS(=O)(=O)c2ccc(NC(=O)Cc3ccc([N+](=O)[O-])cc3)cc2)c1C	i	i

Going on with the list.
SMILES	CHT inh	CHT allo act
COc1ccc(C(=O)NC(=S)NCc2ccc(-c3nc4ccccc4o3)cc2)cc1OC	i	i
c1ccc(Sc2ccccc2CN2CCCC2)cc1	i	i
CCN(CC(=O)NCc1ccc(Cl)cc1)C(=O)CSc1ccccc1	-5.8*	i
O=C(Nc1ccccc1)N(Cc1ccc2c(c1)OCO2)Cc1nc2ccccc2c(=O)[nH]1	i	i
Cc1ccc(S(=O)(=O)Nc2ccc3c(c2)n(C)c(=O)n3C)cc1	i	i
O=S(=O)(NCc1csc(-c2cccnc2)n1)c1ccc2c(c1)OCCO2	i	i
CCn1ccc(C(=O)Nc2ccc(N(C)C(C)=O)cc2)n1	i	i
COc1cccc(CNc2ccc([N+](=O)[O-])cc2C)c1	i	i
CCOC(=O)CC(NCc1ccc(OC)c(OCC)c1)c1ccc(C)cc1 (stereo not given)	i	i
O=C(Nc1ccccc1)N1CCCC(CNS(=O)(=O)Cc2ccccc2)C1 (stereo not given)	i	i
CCCCCC(=O)Nc1ccc(N2CCN(S(C)(=O)=O)CC2)cc1	i	i
CCn1c(C(=O)NC(C)c2ccc3c(c2)OCCO3)cc2sccc21 (stereo not given)	i	i
COc1ccc(NC(=O)CN(C)C(=O)Cc2coc3cc(C)c(C)cc23)cc1	i	i
CCCC(=O)Nc1ccccc1-c1nnc(SC)[nH]c1=O	i	i
O=C(Cn1cc([N+](=O)[O-])cn1)NCc1ccc(-n2cccn2)cc1	i	i
Cc1cccc(NC(=O)c2cc(NC(=O)C3CCCCC3C(=O)O)ccc2Cl)n1 (stereo not given)	i	i
C=COc1ccc(N2C(=O)c3ccccc3OC2C)cc1 (stereo not given)	i	i
COc1ccc(NC(=O)CSc2nncs2)cc1S(N)(=O)=O	i	i
CCN1C(=O)/C(=C\N(C)C)S/C1=N\S(=O)(=O)c1ccccc1	i	i
Nc1nc(SCC(=O)NCC2CCCO2)n[nH]1 (stereo not given)	i	i
COc1ccc2c(c1)CCc1c-2nc2ccccc2c1N1CCOCC1	i	i
Cc1c(C(=O)NCCSCc2ccco2)cccc1[N+](=O)[O-]	i	i
CCOc1cc(C(=O)OCC(=O)Nc2c(C)cccc2C)ccc1OCC(=O)N1CCOCC1	i	i
COc1ccc(-c2cc(C(F)(F)F)n3nc(C(=O)N4CCCCC4)cc3n2)cc1OC	i	i
CC(=O)Nc1ccc(NC(=O)CSc2nnc3ccc(-c4ccccn4)nn23)cc1	i	i
O=C(NCc1ccccc1)c1cccc(OCC(=O)N2CCN(C(=O)c3ccco3)CC2)c1	i	i
O=C(C1CC1)N(Cc1ccco1)c1nc(-c2ccccc2)cs1	i	i
CCOc1ccccc1-n1nnnc1SCC(=O)NCc1ccco1	i	i
COc1cnn(-c2cccc(C(F)(F)F)c2)c(=O)c1Cl	i	i
CC(C(=O)Nc1ccccc1-c1ccccc1)N1CCOCC1 (stereo not given)	i	i
COc1ccc(C)cc1S(=O)(=O)N(C)CC(=O)NCc1ccco1	i	i
Cc1cccc(NS(=O)(=O)c2ccc(C)c(C(=O)OCC(=O)Nc3cc(C)on3)c2)c1	i	i
CCCC1O[C@@H]2CC3C4CCC5=CC(=O)C=C[C@]5(C)C4C(OC(C)=O)C[C@]3(C)[C@]2(C(=O)COC(C)=O)O1 (stereo not given in full)	i	i
Cc1nn(C)cc1CNC(=O)c1cccc(Br)c1	i	i
CCC(=O)Nc1cccc(C2=NOC3(C2)C[C@@H](C(N)=O)N(C(=O)COc2ccc(Cl)cc2)C3)c1 (stereo not given in full)	i	i
COc1ccc(C(=S)N2CCOCC2)cc1OC(=O)c1cc([N+](=O)[O-])c(C)c([N+](=O)[O-])c1	i	i
O=C(Nc1scc(-c2cccs2)c1C(=O)O)c1cccs1	i	i
COc1ccc(-n2c(=O)cc(N3CCc4ccccc43)[nH]c2=O)cc1	i	i
COc1ccc(/C=C/C(=O)C2C(=O)C=C(C)OC2=O)cc1O (stereo not given)	i	i
Cc1ccc(S(=O)(=O)c2cc3c(=O)n4ccccc4nc3n(C)c2=N)cc1C	i	i
CCN1C(=O)C(Cc2nc3ccccc3c(=O)n2C)c2ccccc21 (stereo not given)	i	i
CCN(CC)CCNC(=O)COc1ccc(Cl)cc1Cl	i	i
CCOc1ccc(CCNS(=O)(=O)c2c(C)n[nH]c2C)cc1OCC	i	i
Cc1cc(C)c(N=C2CCCN2Cc2ccccc2)c(C#N)c1	i	i
O=C1CN(C(=O)c2ccccc2F)C(c2ccccc2)c2cc(F)ccc2N1 (stereo not given)	i	i
COc1ccc(NC(=O)c2ccsc2NC(C)=O)cc1	i	i
CC1CC2=C(C(=O)O1)C(c1ccccc1)Nc1ccccc1N2 (stereo not given)	i	i
Cc1cc(C)c2nc(NC(=O)c3ccc4c(=O)n5c(nc4c3)CCCCC5)sc2c1	i	i
O=C(CSc1ccc2nc(-c3ccccc3)cn2n1)NCC1CCCO1 (stereo not given)	i	i
COc1ccc(S(=O)(=O)N2CCC(C(=O)NCC(c3cccs3)N(C)C)CC2)cc1 (stereo not given)	i	i

Record cards (already shown). Order of values: CHT inh | CHT allo act
Results for Cc1cc(C)c(N=C2CCCN2Cc2ccccc2)c(C#N)c1 = i | i
Results for CCN1C(=O)C(Cc2nc3ccccc3c(=O)n2C)c2ccccc21 (stereo not given) = i | i
Results for Cc1cc(C)c2nc(NC(=O)c3ccc4c(=O)n5c(nc4c3)CCCCC5)sc2c1 = i | i
Results for CCN(CC)CCNC(=O)COc1ccc(Cl)cc1Cl = i | i

Following part.
SMILES	CHT inh	CHT allo act
CC(=O)c1sc(NC(=O)c2cnc(Cl)c(Cl)c2)nc1C	i	i
O=[n+]1c2c(n([O-])c3ccccc31)CCC2	i	i
OCc1cc(-c2ccccn2)no1	i	i
COc1ccc(N(CC(=O)Nc2cc(C)cc(C)c2)S(=O)(=O)c2ccccc2[N+](=O)[O-])c(OC)c1	i	i
CC1(C)CC(=O)C=C(NCCCNC2CCCCC2)C1	i	i
C(=N\n1cnnc1)/c1cn(-c2cccs2)nc1-c1ccccc1	i	i
COc1ccc(-c2nc(CS(=O)(=O)CC(=O)NCc3cccc(Br)c3)c(C)o2)cc1	i	i
O=C(Cn1cnc2cc([N+](=O)[O-])ccc2c1=O)N(Cc1ccccc1)C1CCS(=O)(=O)C1 (stereo not given)	i	i
C=CCN(CC=C)CC(=O)Nc1ccc(S(N)(=O)=O)cc1	i	i
CCOc1ccc(N(CC(=O)NC(C)C)C(=O)CCC(=O)Nc2ccccn2)cc1	i	i
CCOC(=O)c1c(NC(=O)CSc2ncnc3ccccc23)sc(C(C)=O)c1C	i	i
CN(C1=NS(=O)(=O)c2ccccc21)c1ccc(OC(=O)c2ccccc2)cc1	i	i
NS(=O)(=O)c1ccc(NC(=O)COC(=O)CCC2CCCC2)cc1	i	i
COCCn1c(SCC(=O)N(C)C2CCS(=O)(=O)C2)nc2ccccc2c1=O (stereo not given)	i	i
Cc1cccc(N2CCN(C(=O)COc3ccc4c(C)cc(=O)oc4c3C)CC2)c1C	i	i
NC(=O)COC(=O)c1ccccc1OCc1ccccc1	i	i
O=Cc1c(NCc2ccccc2F)c2ccccc2[nH]c1=O	i	i
O=C(NC(=S)Nc1ccc2c(c1)OCCO2)c1cccc(Br)c1	i	i
COc1ccc(NC(=O)C2CC(c3ccc(Cl)cc3)=NO2)cc1 (stereo not given)	i	i
O=C(CCCc1ccccc1)Nc1ccnn1C1CCN(Cc2ccccn2)CC1	i	i
COc1ccc(Nc2ncnc3sc(C)cc23)cc1	i	i
COC(=O)c1ccccc1NC(=O)CNC(=O)c1ccc(OC)c(OC)c1	i	i
Cc1ccnc(NC(=O)Nc2ccc(F)cc2)c1	i	i
COc1cccc(CNC(=O)CN2C(=O)COc3ccc(S(=O)(=O)N4CCCCCC4)cc32)c1	i	i
Cc1cc(C)n(Cc2ccc(C(=O)Nc3ccc(Br)cc3C)o2)n1	i	i
c1coc(CNc2ncnc3sc4c(c23)CCCCC4)c1	i	i
COCC(=O)Nc1cc(Cl)c(OC)cc1OC	i	i
CCn1c(CNc2ccc(OC)cc2)nnc1SCC(=O)N1CCCc2ccccc21	i	i
O=C(CSc1ccccc1)N1CCN(C(=O)c2ccco2)CC1	i	i
O=C(Nn1cnnc1)c1ccc(Cl)c([N+](=O)[O-])c1	i	i
COc1ccc(S(=O)(=O)N(C)CC(=O)N2CCN(c3ccc(F)cc3)CC2)cc1OC	i	i
O=C(COC(=O)/C(=C/c1cccs1)c1cccs1)NC(c1ccccc1)c1ccccc1	i	i
COc1ccc(C(=O)C2CCN(C(=O)c3ccc(F)cc3)CC2)cc1	i	i
O=c1c2ccccc2c(/C=N/n2cnnc2)c(O)n1-c1ccccc1	i	i
CCC(=O)c1cccc2c1N=CC1=C(CC(C)(C)CC1=O)N2	i	i
CCOC(=O)N1CCC(NC(=O)c2ccc3c(c2)N(Cc2ccccc2)CCS3)CC1	i	i
Cc1ccc2c(c1)NC(=O)C(CC(=O)NCCN(CC(C)C)CC(C)C)O2 (stereo not given)	i	i
COc1ccc(CNC(=O)CN(Cc2cccs2)C(=O)CCC(=O)Nc2ccccn2)cc1	i	i
CSc1ccccc1COC(=O)Nc1ccccc1C	i	i
CCC(C)[C@H](NC(=O)C1CCN(C(=O)[C@H](Cc2ccccc2)NS(=O)(=O)c2ccc(C)cc2)CC1)C(=O)O (stereo not given in full)	i	i
COc1ccc2c3n([n+]([O-])c2c1)CCN=C3c1ccc(Cl)cc1	i	i
CC(C)=CCN1CCN(Cc2cc(CC(C)C)n[nH]2)CC1CCO (stereo not given)	i	i

These rows are one share of the data; most or all hits stand in other tables.
